VDR inhibitor = inhibitors of human vitamin D receptor; P11473; VDR-SRC2-3 peptide fluorescence polarization, 2 h; Potency, µM, for inactives: max response, negative = inhibition, most hits filed as inhibitors; hit rate 0.93% among 400,000; active = well fitted inhibition curve with a large enough effect; inconclusive = small, poorly fitted or top-dose-only effect, or another doubt; inactive = no such curve, though single readings can be large or run the other way; note: series mostly up to about 120 µM
Target sequence (P11473 whole entry, looked up): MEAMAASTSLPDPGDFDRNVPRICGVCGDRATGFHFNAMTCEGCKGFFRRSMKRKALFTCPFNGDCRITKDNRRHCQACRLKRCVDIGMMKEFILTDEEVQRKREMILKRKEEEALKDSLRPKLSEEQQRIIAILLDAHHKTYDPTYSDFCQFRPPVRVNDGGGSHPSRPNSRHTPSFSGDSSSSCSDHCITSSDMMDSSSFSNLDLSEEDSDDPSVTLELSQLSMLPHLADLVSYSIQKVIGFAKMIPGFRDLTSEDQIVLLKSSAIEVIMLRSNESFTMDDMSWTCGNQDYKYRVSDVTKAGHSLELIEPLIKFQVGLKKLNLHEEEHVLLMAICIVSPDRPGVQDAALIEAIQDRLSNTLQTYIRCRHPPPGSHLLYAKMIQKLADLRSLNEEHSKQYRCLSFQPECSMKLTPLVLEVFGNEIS
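VDR–SRC2-3 interaction, FP format. Cmpds 23 nl via pintool, brief spin, 2 h ambient incubation.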
* = called active by the depositor; ? = inconclusive; & = joins results of further samples; [ ] = dose if it differs, or a comment. % is set by controls: 0 for no effect and ±100 for the full control effect; potency is the fitted concentration of half-maximal effect. Some of the compounds tested; the hit share may differ from the screen's.

Structure | VDR inhibitor
O=C(NCCC1=CCCCC1)c1coc(=O)c(Br)c1 | -6%
OC(CC1CC12c1ccccc1-c1ncccc12)(c1ccccc1)c1ccccc1 (stereo unspecified) | 3%
CCNc1nc(Cl)nc(N(NC(C)=O)C(C)CC)n1 (stereo unspecified) | -18%
O=C(Cn1c(=O)n2nc(-c3cccc(F)c3)nc2c2ccccc21)N1CCN(c2ccc(F)cc2)CC1 | 19%
COc1ccc(CNC(=O)CN2C(=O)NC3(CCCCCCC3)C2=O)cc1 | -4%
c1ccc(N2CCN(c3nc(-c4cccs4)nc4ccccc34)CC2)cc1 | -7%
CCOC(=O)CSc1cc(C)nc2ccc(OC)cc12 | -5%
CC1CCCN(c2ccc(C(=O)OCC(=O)N3c4ccccc4Sc4ccccc43)cc2[N+](=O)[O-])C1 (stereo unspecified) | -16%
CN1Cc2cccc3c2C(Cc2ccccc2S3)C1 (stereo unspecified) | 5%
CCC(CC)COC(=O)C1=C(C)NC(=O)NC1c1cc(OC)ccc1OC (stereo unspecified) | -6%
Cc1cccc(C(=O)Nc2ccc(NC(=O)Cc3ccc(Cl)cc3)cc2)c1 | 1%
CCCCCCOc1ccc(-c2ccc(C#N)cn2)cc1 | 11%
COc1ccc(-n2c(SC3CCOC3=O)nc3ccccc3c2=O)cc1Cl (stereo unspecified) | -13%
O=C(NCc1cccnc1)C1CCN(S(=O)(=O)N2CCC3(CC2)OCCO3)CC1 | -18%
O=C(NCC(=O)N1CCN(C(=O)c2ccco2)CC1)c1ccc(Br)cc1 | -25%
CC(=O)Nc1ccc2c(c1)nc1n2CCOC1 | 5%
CC1(C)CC(=O)C=C(NNC(=O)c2ccccc2)C1 | -21%
Cc1nc2ccc(C(=O)NCc3ccc4c(c3)OCO4)cc2s1 | -3%
COC(=O)c1ccccc1NC(=O)CCCS(=O)(=O)c1nc(-c2ccccc2OC)cc(C(F)(F)F)n1 | -24%
COc1ccc(-c2ccc(OC)c(C3C4C=CCC(C)C4C(=O)N3Cc3ccccc3)c2)cc1 (stereo unspecified) | -7%

Among those listed so far, these have an aryl methoxy group.
Structure | VDR inhibitor
COc1ccc(CNC(=O)CN2C(=O)NC3(CCCCCCC3)C2=O)cc1 | -4%
CCOC(=O)CSc1cc(C)nc2ccc(OC)cc12 | -5%
CCC(CC)COC(=O)C1=C(C)NC(=O)NC1c1cc(OC)ccc1OC (stereo unspecified) | -6%
COc1ccc(-n2c(SC3CCOC3=O)nc3ccccc3c2=O)cc1Cl (stereo unspecified) | -13%
COC(=O)c1ccccc1NC(=O)CCCS(=O)(=O)c1nc(-c2ccccc2OC)cc(C(F)(F)F)n1 | -24%
COc1ccc(-c2ccc(OC)c(C3C4C=CCC(C)C4C(=O)N3Cc3ccccc3)c2)cc1 (stereo unspecified) | -7%

(further entries)
Structure | VDR inhibitor
COc1ccc(C(C)=O)cc1COC(=O)c1ccc(C)c(S(=O)(=O)N2CCOCC2)c1 | -5%
C=CCC1(CC=C)CCCN1C(=O)CC1C(=O)NCCN1Cc1ccccc1OC (stereo unspecified) | -14%
O=C(NNc1cccc(Cl)n1)c1c(F)cccc1F | -16%
COC(=O)[C@@]12CCCCN1[C@H](c1ccc(-c3cc(C(C)=O)cs3)c(OC)c1)[C@H]1C(=O)N(C)C(=O)[C@H]12 | -6%
CCCCCCCC(=O)N/N=C(/C)c1c(O)cc(C)oc1=O | -3%
COc1ccccc1CNC(=O)Cn1c(=O)oc2cc(Cl)ccc21 | 5%
CCOc1ccc(CC(=O)Nc2cc(=O)n(C)c(=O)n2C)cc1 | -8%
C=CCn1c(SCC(=O)Nc2cccc3ccccc23)nc(O)c(CC)c1=O | -4%
CCOc1cccc(CC(=O)NCc2ccc3c(c2)CCN3C(=O)c2cccc(C)c2)c1OCC | -1%
COc1ccccc1N1CCN(C(=O)c2ccc3ncsc3c2)CC1 | 2%
Cc1csc(NC(=O)c2ccc3c(=O)n4c(nc3c2)CCCCC4)n1 | 12%
CC(C)CCNC(=O)NC(=O)COC(=O)/C=C/c1cnc2ccccc2n1 | 1%
COc1cc(C#Cc2ccc3cc(CCO)oc(=O)c3c2)cc(OC)c1 | 2%
CCc1nc2ccccc2n1CCCCOc1cccc(C)c1 | 11%
CSc1ccccc1NC(=O)c1cc(S(=O)(=O)N(C)C)ccc1N1CCCC1 | 0%
O=C1c2ccccc2C(=O)N1Cc1nc(-c2ccncc2)no1 | 1%
CCOC(=O)CCNC(=O)CCc1nnc(CCCc2ccccc2)o1 | -2%
CCOC(=O)C1CCN(S(=O)(=O)c2ccc(N3CCCCS3(=O)=O)cc2)CC1 | 10%
COc1ccc(-c2nnc(SC(=O)N3c4ccccc4Sc4ccccc43)o2)cc1 | 7%
CCCCCCN1C=CC(=C2C(=O)c3ccccc3C2=O)C=C1 | -5%
CCc1nnc(NC(=O)c2cccc(S(=O)(=O)N(C)c3ccc(OC)cc3)c2)s1 | -16%
O=C1CCCCCC1C1(O)C(=O)Nc2ccccc21 (stereo unspecified) | 9%
COc1ccccc1OCc1nnc(SCC(=O)NCc2ccco2)n1-c1ccccc1 | 4%
COc1ccccc1OCC(=O)NC1CC(=O)N(c2ccc3c(c2)OCCO3)C1 (stereo unspecified) | 6%
Cc1cccn2c(=O)c3cc(C(=O)NCCc4ccccc4)c(=N)n(Cc4ccco4)c3nc12 | 11%
CCc1ccccc1OCC(=O)Nc1cccc(S(=O)(=O)NCc2ccco2)c1 | -16%
Cc1ccc(C2=NN3C(C2)c2ccccc2OC32C(=O)Nc3ccccc32)cc1 (stereo unspecified) | ?
COc1nc(Nc2ccccc2F)nc(OC)n1 | 1%
Cc1ccccc1-n1c(SCC(=O)Nc2ccc3c(c2)OCO3)nnc1-c1ccccn1 | -2%
CC1(C)CC(=O)C2=C(C1)N(c1ccccc1)C(N)=C(C#N)C2c1cccnc1 (stereo unspecified) | -1%

Further entries
molecule | VDR inhibitor
CCC(CC)C(=O)Nc1ccc2nc(SCC(=O)N3CCCC3)sc2c1 | 2%
CCCOc1c(OC)cccc1C1CC(=O)Nc2cc(OC)c(OC)c(OC)c21 (stereo unspecified) | 11%
O=C(CN1C(=O)NC2(CCCCC2)C1=O)NCc1cccs1 | 0%
CCc1ccc(NC(=O)CN2CCN(Cc3ccccc3)S2(=O)=O)cc1 | 2%
Cc1ccccc1Nc1c(-c2ccncc2)nc2ccc(Cl)cn12 | -13%&-18%
Cc1ccc(C(=O)NCC(=O)Nc2ccc3c(c2)OCCO3)cc1 | -19%
C#CCn1c(S(=O)(=O)Cc2ccc(F)cc2)nc(-c2ccccc2)c1-c1ccccc1 | -3%
Cc1nc(NC(=O)COC(=O)C2CC2C)c(Cl)cc1Cl (stereo unspecified) | 19%

Some values from the results shown.
VDR inhibitor with `CCCOc1c(OC)cccc1C1CC(=O)Nc2cc(OC)c(OC)c(OC)c21` (stereo unspecified) : 11%
VDR inhibitor with `C#CCn1c(S(=O)(=O)Cc2ccc(F)cc2)nc(-c2ccccc2)c1-c1ccccc1` : -3%

The list continues.
molecule | VDR inhibitor
CCCCC(=O)NC(N1CCCCC1)C(Cl)(Cl)Cl (stereo unspecified) | 8%
COc1ccccc1-c1nc2n(n1)C(c1ccccc1Cl)C(C(N)=O)=C(C)N2 (stereo unspecified) | 5%
O=C(Nc1nc(-c2ccc(-c3ccccc3)cc2)cs1)c1cc([N+](=O)[O-])ccc1N1CCOCC1 | 15%
COc1cccc(C(=O)COC(=O)C2CC(=O)N(c3ccc(Oc4ccccc4OC)cc3)C2)c1 (stereo unspecified) | 5%
COc1ccccc1CNC(=O)CN(CCc1ccccc1)S(C)(=O)=O | 9%
CC(C)N(C(=O)COc1ccc(Br)cc1Cl)C(C)C | 3%
CCOc1ccc(-n2nc(CO)c(C(=O)NCc3ccccn3)n2)cc1 | -3%
Cc1cc2n(n1)CCC(=O)N2Cc1ccc(C(=O)Nc2ccc(Br)c(C)c2)cc1 | 17%
c1ccc(Cn2ccc(-c3cnc(-c4ccccc4)s3)n2)cc1 | -7%
CS(=O)(=O)N(CC(=O)Nc1cccc(F)c1)c1cccc([N+](=O)[O-])c1 | -9%
COc1cc2[nH]c3c(N4CCN(c5ccccn5)CC4)ncnc3c2cc1OC | -7%
CCc1ccc(OCC(=O)NC(NC(=S)Nc2ccc(C)cc2C)C(Cl)(Cl)Cl)cc1 (stereo unspecified) | -7%
O=C(CNc1ccccc1C(=O)O)c1ccccc1 | -15%
CCOc1cccc2c1OC1(C)CC2NC(=O)N1Cc1ccccc1 (stereo unspecified) | 38%[activator]
COc1ccc(C(=O)OCC(=O)NC(=O)NC2CCCC2)cc1[N+](=O)[O-] | -8%
CC(=O)c1ccc(N2C(=O)[C@@H]3[C@H](C2=O)[C@H]2c4ccccc4C=NN2[C@@H]3C(C)=O)cc1 | -7%
C#CCOCCOCCOCCNc1nc(N2CCN(C(=O)[C@H]([C@@H](C)CC)n3cc([C@@H](N)Cc4ccc(O)cc4)nn3)CC2)nc(N2CCN(C(=O)[C@H](CCCCN)n3cc([C@@H](N)C(C)CC)nn3)CC2)n1 (stereo partly specified) | 8%
CC(C)Oc1ccc(C(CC(=O)NCCCN(C)C)c2ccc(F)cc2)cc1 (stereo unspecified) | -2%
O=C(NCc1ccccc1)C1CCN(S(=O)(=O)Cc2ccccc2)CC1 | 23%
CN1CCN(S(=O)(=O)c2ccc(N(C)Cc3c(F)cccc3Cl)nc2)CC1 | -4%
COc1ccc(-n2ncc3c2CC(C)(C)CC3NC(=O)CCc2c(C)nn(C)c2C)cc1 (stereo unspecified) | 6%
CCCCOC(=O)C1=C(C)Nc2ncnn2C1c1ccc(OC)c(OC)c1OC (stereo unspecified) | 1%
CC(C)C(c1nnnn1C1CCCCC1)N1CCCc2ccccc21 (stereo unspecified) | 0%
COC(=O)c1c(-c2ccc(OC)c(OC)c2)csc1N | 9%
Cc1c(C)n(CCC#N)c2ccc(Cl)cc12 | 0%
CCOC(=O)C1CCN(C(=O)c2sc3ncnc(N4CCC(C)CC4)c3c2C)CC1 | -9%
Cc1cc(=O)n2nc(N3CCC(C(=O)NCC(C)c4ccccc4)CC3)sc2n1 (stereo unspecified) | -14%
C/C(=N/NS(=O)(=O)c1ccc(CC(C)C)cc1)c1ccncc1 | -5%
COc1ccc(CC(=O)NNC(=O)c2ccoc2C)cc1OC | 0%
Cn1cnc2ccc([N+](=O)[O-])cc2c1=O | 14%
COc1ccc(-n2c(=O)c3ccccc3n(Cc3ccccc3Cl)c2=O)cc1 | 5%
CN(CC(=O)Nc1cccc2ccccc12)C(=O)c1ccc(F)cc1F | ?
CCCn1c(SCC(=O)NNC(=O)c2ccc(C)cc2)nnc1C(C)C | ?
Cn1ccnc1Sc1nnnn1-c1ccccc1 | 16%
O=C(CN1CCc2cc3c(cc2C1)OCCCO3)Nc1ccc(F)cc1 | -15%
COc1cccc2c(C)cc3nnc(SCC(=O)Nc4ccc(C)cc4)n3c12 | 1%
COCCNC(=O)CSc1nc(-c2ccccc2)[nH]c1-c1ccc(C)cc1 | -12%
CCOC(=O)N1CCC(NC(=S)Nc2ccc3nc(N4CCN(CC)CC4)cc(C)c3c2)CC1 | -3%
CC(=O)c1ccccc1NC(=O)CCNC(=O)c1ccco1 | -11%
Cc1ccc(OCCCC(=O)Nc2ccc(Br)cc2)cc1 | 10%
CN(C)c1ccc(C(C(=O)NCC2CCCO2)N(C(=O)c2snc(C(N)=O)c2N)c2ccccc2)cc1 (stereo unspecified) | -5%
Cc1ccc(CCNC(=O)CN2CCN(Cc3ccccc3F)C2=O)cc1 | -4%
CN(Cc1ccccc1Cl)C(=O)c1cc2ccccc2o1 | 2%
Cc1nnc(NC(=O)c2csc3c2CCC(C)C3)s1 (stereo unspecified) | 4%
CCOc1ccc(NC(=O)CN(C)C(=O)c2cc(C)oc2C)cc1OCC | -7%
Cc1ccc(-n2ncc(C(=O)NCCCN3CCc4ccccc4C3)c2C2CCN(C(=O)OC(C)(C)C)CC2)cc1C | -16%
O=C(Nc1sc2c(c1C(=O)NCC1CCCO1)CCCC2)c1cccs1 (stereo unspecified) | 25%
CCN(CC)CCN1C(=O)C(=O)/C(=C(/O)c2ccncc2)C1c1ccccc1 (stereo unspecified) | 14%
Cc1ccc2oc3c(c(=O)c2c1)C(c1cccs1)N(CCCN(C)C)C3=O (stereo unspecified) | 6%
NC(=O)NC(=O)CC1S/C(=N/N=C/c2ccccc2)NC1=O (stereo unspecified) | 1%
O=C(NCc1cccc(F)c1)c1ccc(-n2cnc3cccnc32)cc1 | -6%
COc1ccc(OC)c(NC(=O)CSc2ncccn2)c1 | 9%
CCN=C1SC(CC(=O)Nc2sc3c(c2C#N)CCCC3)C(=O)N1CC (stereo unspecified) | -7%
Cc1ccccc1C(=O)N1CCC(C(=O)Nc2ccc(S(=O)(=O)N3CCCCC3)cc2)CC1 | 13%
NC(=O)CSc1nnc(-c2ccc(S(=O)(=O)N3CCOCC3)cc2)n1CC1CCCO1 (stereo unspecified) | 1%
CCOc1ccc(S(=O)(=O)Nc2cc(S(=O)(=O)N3CCOCC3)ccc2OC)cc1 | -9%

Part of the list above, as labelled records.
Structure: COc1cc(C#Cc2ccc3cc(CCO)oc(=O)c3c2)cc(OC)c1
  VDR inhibitor: 2%

Structure: CCc1nc2ccccc2n1CCCCOc1cccc(C)c1
  VDR inhibitor: 11%

Structure: CSc1ccccc1NC(=O)c1cc(S(=O)(=O)N(C)C)ccc1N1CCCC1
  VDR inhibitor: 0%

Structure: O=C1c2ccccc2C(=O)N1Cc1nc(-c2ccncc2)no1
  VDR inhibitor: 1%

Further compounds
molecule | VDR inhibitor
CCOC(=O)C1=C(CSCc2ccccc2)NC(=O)NC1c1cc(C)ccc1C (stereo unspecified) | 2%
O=C(N/N=C1/CC2C=CCC12)c1cccs1 (stereo unspecified) | 17%
COc1cc(OC)cc(OC(=O)C2CCN(C(=O)c3ccc(Cl)cc3)CC2)c1 | 12%
Cc1ccc(NC(=S)N=Nc2c(O)n(C)c3ccc(S(=O)(=O)N4CCOCC4)cc23)cc1C | 5%
[N-]=[N+]=N[C@@H](CCN1CC[C@H](O)CCC1=O)c1ccccc1 | 3%
COC(=O)CC(NC(=S)NC(=O)c1ccccc1)c1ccc(Br)cc1 (stereo unspecified) | -3%
Clc1ccccc1CSc1nncn1NC/C=C/c1ccccc1 | -25%

Screening data from PubChem.
